# LANA-H2B inh – blockers of LANA interaction with H2A/H2B – biochemical, FP readout, HTS, primary screen; Protein LANA1 (Human herpesvirus 8 type P (isolate GK18)), Q9QR71; cell-free LANA-H2A/H2B peptide, fluorescence polarization; inhibition, % (test concentration not listed); 320,000 compounds, 0.6% hits; AID 2629, 2010; in the data active means inhibition mostly above about 10%, no sharp cut-off; inactive means mostly below about 6.7%;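 further: stock transfer was 7.5 nL into about 10 µL; 0% = median of vehicle wells and 100% = median of positive control wells; one replicate is shown; the record names a cut of 25% in any replicate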
# A1 inh – caspase 3/7 activation in MEF A1-2A-BIM cells, primary screen, A1 inhibitor project, cell-based, luminescence, HTS | Caspase-Glo 3/7 luminescence, 3 h; percent of clofoctol response, vehicle zero | 330,000 compounds, 0.066% hits | AID 2462, 2010 | caspase activation, % (concentration not given with the values);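 active means over half of replicate activation scores above 10%, or exactly half above 10 with the replicate mean above 10; inconclusive means replicate mean below 10 yet half the replicates above 10; inactive means over half of replicates below 10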;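 further: wells of about 30 µL received 50 nL stock; many hits fall short of the cut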
# AF4-AF9 inh – inhibitors of AF4 peptide binding to AF9, primary screen, biochemical, AlphaScreen, biotin-AF4 peptide, FLAG-AF9, single point; inhibition, % at 10 µM; 350,000 compounds, 0.47% hits;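 active means every replicate reaching a set inhibition limit, whatever the replicate mean, cut at about 25% in these data; inconclusive means mean inhibition reaches that limit but some replicates miss it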;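 further: 0% = plate neutral control median and 100% = total signal loss; the record names both 10 and 1 µM as test concentration; the first replicate is given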
# Target sequence (P42568 whole entry, looked up): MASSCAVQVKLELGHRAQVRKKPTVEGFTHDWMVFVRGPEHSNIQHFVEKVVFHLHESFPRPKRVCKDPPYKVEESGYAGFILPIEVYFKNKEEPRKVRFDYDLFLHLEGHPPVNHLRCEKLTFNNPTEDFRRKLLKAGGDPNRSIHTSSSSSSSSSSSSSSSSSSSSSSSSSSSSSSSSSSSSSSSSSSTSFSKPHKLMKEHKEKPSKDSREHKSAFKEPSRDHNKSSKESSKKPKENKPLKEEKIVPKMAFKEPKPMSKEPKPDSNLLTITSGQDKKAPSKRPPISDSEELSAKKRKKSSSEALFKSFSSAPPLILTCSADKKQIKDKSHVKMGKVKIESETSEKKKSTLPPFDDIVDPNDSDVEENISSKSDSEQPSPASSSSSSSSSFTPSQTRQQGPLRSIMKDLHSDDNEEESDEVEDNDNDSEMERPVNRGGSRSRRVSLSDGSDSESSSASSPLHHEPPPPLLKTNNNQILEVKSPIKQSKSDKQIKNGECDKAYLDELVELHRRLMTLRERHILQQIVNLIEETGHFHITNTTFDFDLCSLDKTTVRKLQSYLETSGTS
# RanGTP-Impb inh – inhibitors of RanGTP-importin-beta interaction, primary screen, biochemical, FRET, CFP-Ran, YFP-importin-beta, homogeneous | cell-free CFP-Ran/YFP-importin-beta FRET ratio | inhibition, % (test concentration not listed) | 300,000 compounds, 1.1% hits | AID 2216, 2009;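 active means most replicates above 15%; inconclusive means exactly half above 15%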;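 further: 0% = DMSO wells and 100% = Ran loaded with GDP instead of GTP; wells of about 40 µL received 100 nL stock; the first replicate is given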
# Vif A3G – inhibitors of Vif binding to APOBEC3G peptide, primary screen, biochemical, TR-FRET, GST-Vif 1-94, biotin-A3G peptide, dose response retest (AID 1117319); Virion infectivity factor (Human immunodeficiency virus type 1 group M subtype B (isolate …; TR-FRET GST-Vif / biotin-A3G peptide binding; higher % means a stronger effect; test concentration not given here; strong numbers were not always called active; inhibition, %; hits with a dose series show IC50 in µM; 260,000 compounds, 0.57% hits;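 active means above the screen mean plus three standard deviations and confirmed in dose response; inconclusive means results disagree or hit not tested in dose response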;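 further: Vif residues 1-94 fused to GST binding biotinylated APOBEC3G peptide 110-148; 0% = full assay without inhibitor and 100% = GST in place of GST-Vif; retest series ran down from 100 µM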
# T cruzi repl – inhibitors of intracellular T. cruzi growth, primary screen, luminescence, NIH3T3 host cells | T. cruzi beta-gal in NIH3T3, 90 h | inhibition, % (concentration not given with the values) | 300,000 compounds, 1.4% hits | AID 1885, 2009;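 active means mean inhibition across valid replicates above about 55%, limit read from the data; inconclusive means mean below that limit but half or more replicates reach it; inactive means mean below it, under half of replicates reach it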;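 further: signal also drops with host cell toxicity which is not excluded here; 0% = plate median of DMSO wells and 100% = zero luminescence signal; higher percent means less beta-gal luminescence so fewer parasites; stock transfer was 50 nL into about 50 µL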
# Calb FLC – C. albicans growth inhibition with fluconazole, primary screen, CaCi-2 strain, Alamar Blue fluorescence; C. albicans CaCi-2 (fluconazole-resistant clinical isolate) + fluconazole, 48 h; growth inhibition, % (test concentration not listed); 300,000 compounds, 0.57% hits; AID 1979, 2009;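 active means most replicates above 75%; inconclusive means exactly half above 75%; inactive means most below 75%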;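 further: all wells also contain fluconazole at 8 µg/ml as a sub-toxic cotreatment; 0% = median of DMSO wells and 100% = median of geldanamycin control wells; wells of about 8 µL received 7.5 nL stock; the first replicate is given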
# Beta cell apopt – inhibitors of cytokine-induced beta cell apoptosis, primary screen, luminescence. INS-1E cytokine-induced death, ATP luminescence, 48 h; percent of positive-control rescue, neutral wells zero. 300,000 compounds, 0.8% hits. protection from apoptosis, % (concentration not given with the values);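 active means all replicates at 75% or more, or half of them and the mean; inconclusive means half reach 75% but not the mean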;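 further: 0% = cytokine-treated negative control wells and 100% = positive control rescue; higher means more ATP so stronger rescue from cytokine killing; wells of about 40 µL received 100 nL stock; the first replicate is given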
# * marks the source's active call; other numbers are inactive results; ? = inconclusive; . = no result given.
SMILES,LANA-H2B inh,A1 inh,AF4-AF9 inh,RanGTP-Impb inh,Vif A3G,T cruzi repl,Calb FLC,Beta cell apopt
O=C(NCc1ccco1)C1(S(=O)(=O)c2ccccc2)CC=CC1,0.5,-0.3,3.6,6.1,.,-27.3,-11.1,-4.1
O=C(Cc1cccs1)Nc1ccccc1,2.2,1.1,-6.2,0.9,.,-1.6,-2.6,-12.1
COCCCNCCOCCOc1ccc(C)cc1Br,.,-0.3,.,-1.3,.,24.8,?,0.7
NS(=O)(=O)c1cc(C(=O)OCC(=O)NNC(=O)c2ccccc2)ccc1Cl,2.8,0.7,-4.4,-1.1,-1.4%,-3.6,-3.5,.
Oc1ccc(-c2nc(-c3ccc(O)c(O)c3)cs2)cc1,3.4,0.2,.,0.1,31.6%,-27.7,?,25.9
COc1ccc(CNc2ccc3c(c2)nc(C)n3C)cc1OC,-2.3,-1.6,-4.8,-2.1,.,-3.4,24.2,.
O=[N+]([O-])c1ccc(N(CC2CO2)S(=O)(=O)c2ccccc2)cc1 (stereo not drawn),-10.3,-1.1,-0.4,4.7,1.0%,-3.2,6.1,-8.4
O=C(NNS(=O)(=O)c1ccccc1[N+](=O)[O-])c1ccccc1[N+](=O)[O-],-5.8,0.2,-4.0,-2.5,1.1%,2.2,21.2,-20.3
Cc1[nH]n(-c2cccc(Cl)c2)c(=O)c1C=NC12CN3CN(CN(C3)C1)C2,2.7,3.1,.,3.4,-0.6%,-20.7,17.8,2.9
Clc1ccccc1CSc1nnc(/C=C/c2ccccc2)o1,-9.7,-0.5,.,?,2.7%,3.6,-11.9,-1.2
COc1cc(/C=C/C(=O)NCc2ccccn2)cc(OC)c1OC,-3.6,-0.5,9.8,2.2,-9.4%,-0.1,-1.8,1.9
Cc1cccc(OCC(=O)N2CCc3ccccc3C2)c1,2.2,0.8,2.7,4.8,-11.2%,-14.3,5.1,-8.7
CC(=O)c1ccc(C(=O)Nc2sc3c(c2C(N)=O)CCN(Cc2ccccc2)C3)cc1,-25.6,-0.5,-0.2,55.3*,.,-20.4,-3.1,0.6
COc1cccc(NS(=O)(=O)c2cc(C)sc2C)c1,1.7,0.5,.,-1.8,8.6%,-4.9,-1.1,-1.3
Oc1ccc2ccccc2c1/C=N/Nc1ccccc1,2.4,0.4,.,-4.3,18.4%,-5.6,-6.3,1.6
NC1=CC(=O)c2cccc3cccc1c23,8.0,0.6,.,-13.9,.,11.1,0.6,-3.2
CC(=O)N(C(C)=O)c1ccc2nc(C)[nH]c(=O)c2c1,2.0,0.2,.,-0.9,?,0.1,-1.5,-1.9
COc1ccccc1/C=C/C=N/n1c(C)nnc1C,8.6,0.5,-4.2,-1.9,-8.7%,-2.5,25.2,-12.1
CC(C)CCCN1C(N(C)C)=NC[C@@H]1C,-3.0,0.9,3.7,.,.,.,.,-5.9
COc1cccc(OC)c1C(=O)Nc1ccc(CN2CCCCC2)cc1,-1.7,0.3,.,3.4,-1.4%,-9.8,-4.1,-5.9
CCNc1c(NS(=O)(=O)c2ccc(Cl)s2)c(=O)oc2ccccc12,5.4,0.3,0.1,4.8,.,-3.8,-3.9,5.3
CCN(C(=O)CCNC(=O)Cn1cnc2ccccc2c1=O)c1cccc(Cl)c1,4.3,1.0,-2.1,0.6,-5.2%,4.7,3.5,-2.0
CCC(=O)N(CC)c1nc(-c2cc(OC)ccc2OC)cs1,2.3,0.0,-1.4,2.8,-11.7%,17.9,6.7,-2.9
Cc1sc(N/N=C/c2cccs2)nc1-c1ccccc1,1.1,-0.4,1.2,1.2,.,4.4,-12.0,10.8
COc1ccc(OC)c(NC(=O)CSc2nnc(C)n2Cc2ccccc2)c1,-2.2,0.0,.,4.2,78.7%,9.8,-5.0,-3.0
Cc1ccc(-c2cc(=O)c3ccc(F)cc3[nH]2)cc1,-1.2,-0.5,2.0,5.8,-16.0%,-26.4,12.9,6.1
O=C(N=Nc1c(O)n(C2OC(=O)c3ccccc32)c2ccccc12)c1ccc(O)cc1 (stereo not drawn),11.3,-1.4,.,0.8,0.1%,-8.4,2.9,0.3
Cc1cc(C(=O)NC(C)C)on1,0.2,0.0,.,-4.3,16.5%,-10.8,-7.3,-0.6
O=C1N/C(=C\c2ccsc2)C(=O)N1Cc1ccc(F)cc1,-4.1,1.2,-1.2,4.7,-7.9%,-12.0,2.0,-0.4
CC1(C)CC(=O)C2=C(C1)Nc1ccccc1NC2c1nc2ccccc2[nH]1 (stereo not drawn),0.9,-0.4,-4.5,?,4.0%,1.5,6.2,-2.2
O=C(COC(=O)CNC(=O)c1ccc(Br)o1)Nc1ccc2c(c1)OCCO2,1.4,0.5,.,-2.6,1.0%,-8.0,-1.5,-5.3
COc1ccc(NC(=O)CN(C)C(=O)c2c(C)nn(Cc3ccccc3)c2C)cc1,0.1,-1.6,2.2,4.5,0.5%,5.0,0.9,-0.2
CCc1cc2c(SCC(=O)NC(=O)c3cccn3C)ncnc2s1,-0.3,-0.5,-0.8,-2.8,-0.9%,17.8,1.4,-3.5
Cc1nc([N+](=O)[O-])c(Br)n1CC(=O)c1ccccc1,0.7,-0.4,.,?,5.1%,2.3,-0.7,-3.9
Cc1ccc(-n2nc(C)cc2N)c(C)c1,1.6,-0.1,2.5,-0.7,-0.5%,18.7,14.9,.
CCOc1ccc(CNC(=O)C(CC)n2nc(C)n3c(cc4occc43)c2=O)cc1OC (stereo not drawn),-2.6,0.2,.,-2.7,13.9%,-5.4,?,-5.8
COc1cccc(CNC(=O)Cc2ccc(-n3c(=O)[nH]c4ccccc4c3=O)cc2)c1,4.0,0.2,0.9,-0.8,-5.2%,-16.6,21.6,5.5
C[C@H]1COC(=O)[C@@H](Cc2ccc(F)cc2)CC/C=C/C[C@H](CC(=O)N(CCO)Cc2ccccc2)C(=O)N1,2.6,1.3,-1.0,.,.,.,.,2.6
O=C(Nc1cccc(NC(=O)c2ccccc2)n1)c1ccccc1,12.8,-0.5,-0.1,-4.8,.,-2.8,30.9,-4.7
Cc1ccc(-c2nn3c(C)nnc3c3ccccc23)cc1S(=O)(=O)NC(C)c1ccccc1 (stereo not drawn),-2.9,-0.6,.,0.5,-5.6%,29.1,1.4,34.0
C=CCn1c(SCC(=O)N2CCOCC2)nc2scc(-c3ccco3)c2c1=O,-0.8,-0.8,.,-0.7,?,-4.4,-3.1,-9.4
CCC(C)NC(=O)CN(C1CCCCC1)S(=O)(=O)c1ccc(F)cc1 (stereo not drawn),-8.8,-0.3,-1.9,3.3,-2.4%,-0.5,-8.4,-1.7
COCCn1c(=O)[nH]c2cc(C(=O)N3CCN(c4ccccc4OC)CC3)ccc2c1=O,-8.3,0.3,.,-0.3,12.5%,0.6,5.8,1.9
Cc1ccc(CNC(=O)Nc2ccc(C)cc2)cc1,-0.4,-0.7,-0.7,1.5,14.0%,-1.0,-8.0,-1.9
CCOC(=O)CC(NC(=O)c1cc2cccc(OC)c2oc1=O)c1ccc(OC)cc1 (stereo not drawn),-3.2,-0.7,0.8,2.5,-13.0%,11.7,-6.6,-4.6
N#C/C(=C\c1ccccc1)C(=O)Nc1nncs1,9.9,-0.7,-10.3,1.8,-2.0%,7.0,8.7,-5.2
O=C(c1ccc(CS(=O)(=O)c2ccc(Br)cc2)o1)N1CCN(c2ccc(F)cc2)CC1,7.3,-3.0,-0.9,0.0,3.2%,25.5,7.8,6.4
Cc1ccc(S(=O)(=O)N2CN(Cc3ccco3)c3nc4ccccc4nc32)cc1C,-3.0,-0.7,.,3.9,25.6%,12.8,6.2,-7.9
COc1ccccc1OCCn1c(=S)[nH]c2ccccc21,-2.3,-0.2,2.4,-4.5,.,-15.4,1.7,-4.2
COC(=O)c1cccc(NC(=S)NCc2ccc(F)cc2)c1,-3.5,?,0.9,1.3,-0.6%,-24.6,-1.6,-6.8
CCN1C(=O)[C@H]2[C@@H](c3ccc(C)cc3)N3C(=O)N(c4ccccc4)C(=O)[C@@]3(C)[C@H]2C1=O,0.2,-0.3,-3.3,-2.3,.,-5.6,-1.5,.
COc1ccccc1CNC(=O)CC(C)c1ccccc1 (stereo not drawn),12.8,2.1,-2.7,-2.6,.,-14.8,3.9,0.8
Nc1nc(SCC(=O)Nc2cccc(F)c2)n[nH]1,-0.1,-0.9,-5.7,.,.,.,.,-5.4
Cc1ccc(CNC(=O)CCSCCC(=O)NCc2ccc(C)cc2)cc1,3.4,-0.5,.,0.6,-5.0%,-6.8,2.6,-1.2
Cc1ccc(C2=NN(C(=O)c3ccccc3F)C(c3ccccc3F)C2)cc1 (stereo not drawn),2.4,0.4,2.1,0.1,0.8%,30.9,.,0.3
O=C1C2C3c4ccccc4C(c4ccccc43)C2C(=O)N1Cc1ccccn1 (stereo not drawn),3.0,0.2,0.5,2.0,-7.0%,13.7,-7.8,-2.0
COc1cccc(C(=O)NCCS(=O)(=O)N(C)Cc2ccccc2)c1,3.9,0.7,8.2,-3.0,.,3.4,-2.9,1.5
CC(C)(C)NC(=S)NCc1ccncc1,3.2,0.5,-3.9,5.2,6.8%,-7.6,-12.2,-2.8
CC(=O)Nc1cccc(C(=O)OCc2ccccc2)c1,1.2,-0.8,.,4.4,-0.6%,-9.6,28.7,4.7
O=C(Cn1cc(C(F)(F)F)cc(Cl)c1=O)Nc1cc(Cl)cc(Cl)c1,-2.8,-0.4,-1.0,9.3,31.4%,-0.9,-9.7,0.3

# Continuation:
SMILES,LANA-H2B inh,A1 inh,AF4-AF9 inh,RanGTP-Impb inh,Vif A3G,T cruzi repl,Calb FLC,Beta cell apopt
Cc1cnc(C)c(N2CCC(C(=O)NCc3ccco3)CC2)n1,-6.2,0.1,.,-3.3,-5.8%,9.2,1.2,-1.2
COc1ccc(Oc2c(Cl)cnn(-c3ccc(C)cc3)c2=O)cc1,2.0,2.1,.,1.4,-5.1%,-16.0,17.0,1.8
COc1ccccc1NC(=S)NC(NC(=O)C(C)C)C(Cl)(Cl)Cl (stereo not drawn),11.0,-0.2,-6.2,4.2,.,4.2,-1.1,5.1
O=c1c(Cl)c(Cl)cnn1-c1ccccc1,.,.,-2.2,2.5,.,49.7,?,.

# A stretch of the results above, for reference:
SMILES,LANA-H2B inh,A1 inh,AF4-AF9 inh,RanGTP-Impb inh,Vif A3G,T cruzi repl,Calb FLC,Beta cell apopt
O=C(Cn1cc(C(F)(F)F)cc(Cl)c1=O)Nc1cc(Cl)cc(Cl)c1,-2.8,-0.4,-1.0,9.3,31.4%,-0.9,-9.7,0.3
Cc1cnc(C)c(N2CCC(C(=O)NCc3ccco3)CC2)n1,-6.2,0.1,.,-3.3,-5.8%,9.2,1.2,-1.2

# Compound activity: PubChem, several laboratories
